Bead autofluor: compound fluorescence in toxin protease inhibitor counterscreen | compound autofluorescence counterscreen, microsphere flow cytometry; active compounds read high | fluorescence intensity (test concentration not listed) | AID 624483 | 3.1% of 360,000 active;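 active = at least 3 SD above the mean of all compounds, about 16000 in these data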;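 note: 100 nL of 1 mM stock went into each well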
* = called active by the depositor. Not all compounds are listed; rates above refer to the full screens.

Molecule,Bead autofluor
CC(=O)Nc1cc(-c2ccc(C(=O)NC3CC3)cc2)cn2c(-c3cccc(C(F)(F)F)c3)cnc12,3534
CCOc1ccc(NC(=O)c2ccc3c(c2)N(C)CCS3)cc1,3892
CN(C)c1ccc(C=Cc2nccc3ccccc23)cc1,7263
CC1(C(=O)Nc2cccc(Oc3ccccc3)c2)Cc2c(-c3ccc4c(c3)OCO4)ccnc2O1 (stereo unspecified),3572
O=C(NCc1ccco1)C1Cc2c(-c3cccc(F)c3)ccnc2O1 (stereo unspecified),4163
CCc1nc2ccc(C(=O)NC3CCN(C)CC3)cn2c1N(C)CCC(C)C,3107
CC1C(=O)N(Cc2cn(CCC3OCCO3)nn2)CCS(=O)(=O)N1Cc1ccc(-c2ccc(F)nc2)cc1 (stereo unspecified),3780
Cc1ccccc1COc1cccn2c(N(C)C(=O)CCC3CCCC3)c(C)nc12,3813
CCC(CC)C(=O)N(C)c1c(C)nc2c(OCC=C(C)C)cccn12,3745
C(=C\c1ccccc1)/CN1CCN(C(c2cccc3ccccc23)c2nnnn2C2CCCC2)CC1 (stereo unspecified),6355
COc1ccccc1N1CCN(C(=O)c2[nH]c(C(F)(F)F)nc2-c2ccccc2)CC1,6059
NC(CCc1ccccc1)c1csc(Nc2ccc(C(F)(F)F)cn2)n1 (stereo unspecified),3186
Cc1cc(C)c(C(O)c2ncc(-c3ccccc3C)[nH]2)c(C)c1 (stereo unspecified),3965
Cc1cc(CN(Nc2ccccc2)c2ccccc2)cc(C)n1,3522
CN(C)CCNC(=O)c1cccc(-c2cnc3c(NC=O)cc(/C=C/c4ccccc4)cn23)c1,4586
CCOC(=O)C1CCN(C(=O)c2sc3ncn(CC(=O)N4CCCCC4)c(=O)c3c2C)CC1,3889
Cc1cc(C)cc(C(O)c2ncc(-c3ccc(C(F)(F)F)cc3)[nH]2)c1 (stereo unspecified),3768
COc1ccc(OC)c(NC(=O)C2(C)CCN2C(=O)C2(c3ccccc3)CCCC2)c1 (stereo unspecified),2744
c1ccc(OCCNc2ccn3nc(-c4ccc(OCCN5CCOCC5)cc4)cc3n2)cc1,4266
CCc1nc2ccc(C(=O)NCc3ccccc3OC)cn2c1N(C)C(=O)Cc1ccccc1,3962
O=C(NCc1cc(C(F)(F)F)cc(C(F)(F)F)c1)c1cc(-c2cc(F)ccc2OCC2CCCO2)n[nH]1 (stereo unspecified),3992
C[C@@H]1CN([C@H](C)CO)C(=O)CCCn2nncc2CO[C@H]1CN(C)S(=O)(=O)c1ccc2c(c1)OCCCO2,2921
COc1ccc(NC(=O)c2nc[nH]c2C(=O)N(C)CCO)cc1,3937
CCOc1ccc(CCN2C(=O)C(=O)N([C@@H](CC(C)C)CN3CCC[C@H]3CN3C(=O)C(=O)NC[C@@H]3Cc3ccccc3)C[C@@H]2CC(C)C)cc1,4833
O=C1NC[C@@H](Cc2ccc(O)cc2)N(CCc2cc(C(F)(F)F)cc(C(F)(F)F)c2)C1=O,4263
CCCN(C)C1CN(Cc2cn(Cc3ccc(C(F)(F)F)cc3)nn2)S(=O)(=O)C1 (stereo unspecified),4203
Cc1ccc(Cc2c(-c3ccc(F)cc3)nc3ccc(Cl)cn23)cc1,3762
C[C@@H]1CN([C@H](C)CO)C(=O)CCCn2nncc2CO[C@@H]1CN(C)S(=O)(=O)c1ccc(C#N)cc1,3462
COc1cc(OC)cc(C(=O)NNC(=O)C2CCC2)c1,4090
O=C1NC(c2ccc3ccccc3c2)Nc2ccccc21 (stereo unspecified),3868
Nc1nc2c(ncn2[C@@H]2O[C@H](CNCc3ccc(OCCCN4CCOCC4)cc3)[C@@H](O)[C@H]2O)c(=O)[nH]1,6033
C=C1CCC2C(C)(C(=O)O)CCCC2(C)C1CCC(CO)CCO (stereo unspecified),5364
CC(C)C[C@H]1CN(CCCC[C@H]2CNC(=O)C(=O)N2CC2CCCCC2)C(=O)C(=O)N1CCc1ccccc1,5178
COc1cc(C=NC2CCCCC2)ccc1O,3422
CC(=O)Nc1cccc(-c2csc(C(C)(O)c3ccc(F)c(F)c3)n2)c1 (stereo unspecified),3503
CCc1nc2ccc(C(=O)N3CCN(C(=O)c4ccco4)CC3)cn2c1N(C)C(=O)COc1ccccc1,4041
O=C1NC[C@H](CCCCN2C[C@H](Cc3ccc(O)cc3)N(CCc3ccccc3)C(=O)C2=O)N(CC2CCCCC2)C1=O,5470
CCOC(=O)Cc1ccc(Nc2nc3cc(-c4sccc4C)sc3c(=O)n2C)cc1,3681
C[C@H]1CN([C@@H](C)CO)C(=O)CCCn2nncc2CO[C@H]1CN(C)S(=O)(=O)c1ccccc1F,3459
COC(=O)[C@]12CCCCC=C1N(CCC1=CCCCC1)C(=O)[C@H](CC(=O)N1CCOCC1)C2,5290

Part of the list above in order of SMILES length, ascending.
Molecule,Bead autofluor
COc1cc(C=NC2CCCCC2)ccc1O,3422
O=C1NC(c2ccc3ccccc3c2)Nc2ccccc21 (stereo unspecified),3868
COc1cc(OC)cc(C(=O)NNC(=O)C2CCC2)c1,4090
C=C1CCC2C(C)(C(=O)O)CCCC2(C)C1CCC(CO)CCO (stereo unspecified),5364
Cc1ccc(Cc2c(-c3ccc(F)cc3)nc3ccc(Cl)cn23)cc1,3762
CC(=O)Nc1cccc(-c2csc(C(C)(O)c3ccc(F)c(F)c3)n2)c1 (stereo unspecified),3503
CCOC(=O)Cc1ccc(Nc2nc3cc(-c4sccc4C)sc3c(=O)n2C)cc1,3681
CCCN(C)C1CN(Cc2cn(Cc3ccc(C(F)(F)F)cc3)nn2)S(=O)(=O)C1 (stereo unspecified),4203
COC(=O)[C@]12CCCCC=C1N(CCC1=CCCCC1)C(=O)[C@H](CC(=O)N1CCOCC1)C2,5290
C[C@H]1CN([C@@H](C)CO)C(=O)CCCn2nncc2CO[C@H]1CN(C)S(=O)(=O)c1ccccc1F,3459
CC(C)C[C@H]1CN(CCCC[C@H]2CNC(=O)C(=O)N2CC2CCCCC2)C(=O)C(=O)N1CCc1ccccc1,5178
O=C1NC[C@H](CCCCN2C[C@H](Cc3ccc(O)cc3)N(CCc3ccccc3)C(=O)C2=O)N(CC2CCCCC2)C1=O,5470
Nc1nc2c(ncn2[C@@H]2O[C@H](CNCc3ccc(OCCCN4CCOCC4)cc3)[C@@H](O)[C@H]2O)c(=O)[nH]1,6033

Following part
Molecule,Bead autofluor
FC(F)(F)c1cc(Cl)c2nc(-c3cccc(Cl)c3)c(Cc3cccc(Cl)c3)n2c1,5348
CN(CC(=O)Nc1ccc(F)cc1)C(=O)c1ccc(-c2ccc(F)cc2)o1,3767
O=C(COC(=O)/C=C/c1ccccc1Cl)NC1CC1,3794
Cc1ccc(/C=C/C(=O)OCC(=O)N(C)c2c(N)n(Cc3ccccc3)c(=O)[nH]c2=O)o1,3936
Nc1ccn([C@@H]2O[C@H](C(=O)NCc3ccc4c(c3)OCO4)[C@@H](O)[C@H]2O)c(=O)n1,5534
COc1ccc([C@H]2C[C@@H](n3cc(C4CC4)nn3)[C@H](O)CN2C(=O)C2CCCCC2)cc1,3395
CC1(C)OC(=O)C2=C(C[C@@H](C3CC3)O[C@H]2c2ccc(Cl)cc2)O1,5956
Cc1ccc(S(=O)(=O)NC(=O)C2(C)CCN2C(=O)C2(c3ccc(Cl)cc3)CCC2)cc1 (stereo unspecified),4551
O=C(NCc1ccccc1)c1cc(C2COCCN2C(=O)OCCF)on1 (stereo unspecified),3742
OCC[C@@H]1C[C@H](O)[C@@H](O)[C@@]2(OCc3cc(Cl)ccc32)O1,3463
CCOc1cc(OCC)cc(C(=O)N2CCC[C@H]2C(=O)N2CCC[C@H]2C(=O)N[C@H](C)c2ccccc2)c1,4288
CNCc1cc(C)n(-c2cc(S(=O)(=O)N3CCOCC3)ccc2N2CCCC2)c1C,5701
Cc1ccc(CN2C(=O)c3ccccc3C2c2nnnn2-c2ccc3c(c2)OCCO3)cc1 (stereo unspecified),5605
CCOC(=O)c1c(C)[nH]c(C(=O)OC(C)C(=O)Nc2ccc(C)cc2)c1C (stereo unspecified),3567
Cc1ccc(C)c(NC(=O)CN2C(=O)C3CC=CCC3C2=O)c1 (stereo unspecified),3718
Cc1cc(C)c2c(=O)n3c(nc2c1)C(Cc1ccc(O)cc1)NC(=O)c1cc2ccccc2cc1-3 (stereo unspecified),3469

(list continues)
| molecule | Bead autofluor |
| --- | --- |
| OC[C@@H]1CN(Cc2ccccc2)C[C@H](n2cnc3c(N4CCOCC4)ncnc32)O1 | 3844 |
| C[C@H](O)C#Cc1ccc2c(c1)O[C@@H](CN(C)Cc1ccc(-c3ccccc3)cc1)[C@H](C)CN([C@@H](C)CO)S2(=O)=O | 3453 |
| Cc1ccc(S(=O)(=O)N2[C@H](c3ccccc3)CC(=O)[C@@H]3CN(S(=O)(=O)c4ccccc4)[C@H](c4ccccc4)C[C@@H]32)cc1 | 4306 |
| CC(C)C[C@H]1CN(CCCC[C@H]2CNC(=O)C(=O)N2CC2CCCCC2)C(=O)C(=O)N1Cc1ccccc1 | 5471 |
| Cc1onc(-c2c(F)cccc2Cl)c1C(=O)Oc1ccccc1 | 4115 |
| COc1cc(/C=C/CN2CCC(C(=O)NC(c3ccc(F)cc3)c3ccc4ccccc4n3)CC2)ccc1OC(C)=O (stereo unspecified) | 3879 |
| CCCCNC(=O)C1(C)CCN1C(=O)c1csnn1 (stereo unspecified) | 2993 |
| CCOC(=O)[C@]12CCCC=C1N(Cc1cccc3ccccc13)C(=O)[C@H](CC(=O)NCCCCc1ccccc1)C2 | 6042 |
| CCCNC(=O)C1(C)CCN(C(=O)c2cccc(Cl)c2)C1 (stereo unspecified) | 2870 |
| O=C(c1ccc(CS(=O)Cc2ccc(Cl)cc2)o1)N1CCN(C2CCCCC2)CC1 (stereo unspecified) | 2878 |
| C#CCN(C[C@H]1[C@H](OC(=O)Nc2c(C)noc2C)[C@H](OC(=O)Nc2c(C)noc2C)C[C@H]2C(=O)N(c3ccccc3)C(=O)[C@@H]12)S(=O)(=O)c1ccc(C)cc1 | 3369 |
| COc1cccc(C(C)(O)c2nc(-c3cccc(C#N)c3)cs2)c1 (stereo unspecified) | 2928 |
| N#Cc1ccc(-c2nc3c4ccccc4ccn3c2Cc2cccc(Cl)c2)cc1 | 7035 |
| CN(Cc1c(F)cccc1Cl)C(=O)COC(=O)Cn1cnc2ccccc2c1=O | 3958 |
| CC1(C(=O)NCCC#N)CCN1C(=O)C1(c2ccccc2)CCCC1 (stereo unspecified) | 3448 |
| CCN(C)C1CN(Cc2cn(Cc3cccc(C(F)(F)F)c3)nn2)S(=O)(=O)C1 (stereo unspecified) | 4181 |
| CN1CCN(CCNC(=O)c2ccc(CS(=O)c3ccc(Br)cc3)o2)CC1 (stereo unspecified) | 3759 |
| COc1cccc(OC2(C)CCN(Cc3cccn3-c3nccs3)C2)c1 (stereo unspecified) | 3447 |
| CC(C)(C)S(=O)N1Cc2cc(C(=O)O)nc(-c3cccc(-c4cc5ccccc5o4)c3)c2[C@H]1CCO (stereo partly specified) | 6672 |
| CC(=O)c1cccc(NC(=O)C2Cc3c(-c4ccccc4Oc4ccccc4)ccnc3O2)c1 (stereo unspecified) | 2952 |
| COC(=O)[C@]12CCCCC=C1N(Cc1ccccc1)C(=O)[C@H](CC(=O)N1CCCC1)C2 | 4272 |
| C=CCN(CC=C)Cc1cc(=O)oc2cc(C)c(Cl)cc12 | 6198 |
| N#CC1=C(Nc2ccccc2Cl)SC(c2ccncc2)NC1=O (stereo unspecified) | 5766 |
| CCCNC(=O)c1cc(C2CCCCN2S(=O)(=O)c2ccc(F)cc2F)on1 (stereo unspecified) | 3755 |
| CC(C)COC(=O)N(C)C[C@@H]1OCc2cn(nn2)CCCC(=O)N([C@@H](C)CO)C[C@H]1C | 3911 |
| CCNC(=O)C1(C)CCCN(C(=O)c2cccc(C)c2C)C1 (stereo unspecified) | 3923 |
| Cn1c(Nc2ccc(F)cc2)nc2cc(-c3ccsc3)sc2c1=O | 3639 |
| CCC(C)C(CO)NC(=O)/C=C/[C@H]1O[C@@H](n2cnc3c(NC(=O)c4ccccc4)ncnc32)[C@H](O)[C@@H]1O (stereo partly specified) | 4245 |
| COC(=O)C(Sc1ccc(Cl)cc1)C1SC(=S)N(Cc2ccccc2)C1=O (stereo unspecified) | 3564 |
| COc1ccc(F)cc1-c1cc(C(=O)NCc2cccc(Cl)c2)[nH]n1 | 3765 |
| CCc1nc2c(OCCOc3ccccc3)cccn2c1N(C)C(=O)c1cccs1 | 3878 |
| Cc1cccc(NC(=O)c2cc(S(=O)(=O)N3CCCCC3)c[nH]2)c1 | 4267 |
| Cc1ccc(C(=O)C=Cc2ccc3c(c2)OCO3)c(C)c1 | 4388 |
| CCCCC[C@@H]1CCCCC[C@H](O)C[C@H](O)[C@@H](O)/C=C/C(=O)O1 | 6588 |
| CC(C)C[C@H]1CN(CCCC[C@@H]2CNC(=O)C(=O)N2Cc2ccccc2)C(=O)C(=O)N1CC1CCCCC1 | 6443 |
| CCOC(=O)C1(C)CCCN(C(=O)c2cccc(C#N)c2)C1 (stereo unspecified) | 3785 |
| COC(=O)[C@@]1(Cc2ccc(OC)cc2)[C@H]2c3cc(C(=O)N4CCCC4)n(Cc4ccc(Cl)c(C(F)(F)F)c4)c3C[C@H]2CN1C(=O)c1ccccc1 | 5891 |
| CCc1nc2c(OCC=C(C)C)cccn2c1N(C)C(=O)c1ccc(OC)cc1 | 3425 |
| COC1=CC(C)C2CC3OC(O)CC4C(C)=C(OC)C(=O)C(C2(C)C1=O)C34C (stereo unspecified) | 5242 |
| N#CC(=C1C=CC(=NO)C(Cl)=C1)c1ccccc1 | 5735 |
| Cc1ccc(Cc2c(-c3cccc(Cl)c3)nc3c4ccccc4ccn23)cc1 | 6381 |
| CN1NC(c2ccccc2)NN(C)C1=O | 4258 |
| CC(=O)N1Cc2cc(C(=O)NCc3cccc(F)c3)nc(-c3cccc(C4=CCCC4)c3)c2[C@H]1CCO | 5548 |
| c1ccc(Cn2c(Cn3c(-c4cnccn4)nc4ccccc43)nc3ccccc32)cc1 | 4450 |
| CCCS(=O)(=O)NC(=O)C1(C)CCN(C(=O)c2cc(C)n(C(C)(C)C)n2)C1 (stereo unspecified) | 3665 |
| C[C@H]1CN([C@@H](C)CO)S(=O)(=O)c2ccc(-c3cncnc3)cc2O[C@H]1CN(C)C(=O)NC1CCCC1 | 3651 |
| NC(=O)c1cccc(-c2ccnc3c2CC(C(=O)Nc2ccccc2)O3)c1 (stereo unspecified) | 3380 |
| CC1(C(=O)NCc2ccccc2Br)CCN1Cc1ccc2ccccc2c1 (stereo unspecified) | 3685 |
| COc1ccc(Br)c(C=O)c1OS(=O)(=O)c1ccc(C)cc1 | 3027 |

High-throughput results deposited in PubChem by NMMLSC.
